HIV Env fusion: HIV envelope-mediated fusion inhibition; HeLa-JRFL Env/CEM21 cell fusion, luciferase; 1.1% of 360,000 active; AID 651610; inhibition, % at 12.3 µM;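 active means mean replicate inhibition score of at least 50 and every replicate individually at or above 50; inconclusive means only one of the two criteria met; inactive means mean below 50 and not all replicates reaching 50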;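 further: 0% = plate neutral controls and 100% = maraviroc near 300 nM; one replicate is shown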
Rce1 inh: yeast Ras-converting enzyme inhibition | yeast membranes, quenched prenylated peptide cleavage fluorescence | calls only | 0.27% of 290,000 active;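 active means fall in fluorescence gain of 50% or more versus controls, with final raw signal at or below 3038400; inconclusive means same 50% fall but final raw signal above 3038400; inactive means fall in fluorescence gain under 50%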;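 further: plate controls were neutral control wells for no effect and wells lacking membranes for full effect; tested at 10 µM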
PABP polyA inh: blocks human PABP binding to poly(A) RNA; fluorescence polarization; P11940; inhibition, % at 35 µM; 1% of 290,000 active; AID 2014;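 active means 50% or more with normal probe brightness, or confirmed in later tests; inconclusive means above 50% with abnormal brightness, or retests that disagree; inactive means below 50% or failed in later tests; about a fifth of its hits are not listed in these tables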;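 further: calls also rest on retests at 20 µM and on dose response follow-up; controls were probe without protein and protein plus probe with vehicle; some compounds called inactive have numbers as strong as hits; many hits fall short of the cut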
Target sequence (P11940 whole entry, looked up): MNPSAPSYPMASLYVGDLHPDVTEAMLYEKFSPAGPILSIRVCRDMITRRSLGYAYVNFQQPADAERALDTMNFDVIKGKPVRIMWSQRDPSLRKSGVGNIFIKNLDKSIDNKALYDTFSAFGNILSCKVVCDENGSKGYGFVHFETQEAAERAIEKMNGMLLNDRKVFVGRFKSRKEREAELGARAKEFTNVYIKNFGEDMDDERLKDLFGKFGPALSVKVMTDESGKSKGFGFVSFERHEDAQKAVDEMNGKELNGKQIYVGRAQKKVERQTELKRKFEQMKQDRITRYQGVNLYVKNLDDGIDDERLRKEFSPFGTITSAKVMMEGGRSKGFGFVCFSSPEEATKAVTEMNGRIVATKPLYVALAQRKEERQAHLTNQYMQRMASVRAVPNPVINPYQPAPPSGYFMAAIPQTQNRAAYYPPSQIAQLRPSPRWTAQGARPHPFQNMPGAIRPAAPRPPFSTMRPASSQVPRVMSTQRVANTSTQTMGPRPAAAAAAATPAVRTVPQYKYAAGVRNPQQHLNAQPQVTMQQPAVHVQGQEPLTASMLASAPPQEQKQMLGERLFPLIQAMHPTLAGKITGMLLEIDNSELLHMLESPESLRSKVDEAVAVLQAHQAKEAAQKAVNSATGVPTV
MT1-MMP act inh: inhibitors of human MT1-MMP activation. GFP/RFP ratio change, % at 20 µM. 0.061% of 360,000 active. P50281. HT1080 RFP-PRO-GFP cells, GFP/RFP ratio fluorescence, overnight; percent of plate control window, DMSO zero;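 active means GFP/RFP ratio change of at least 30% with cell ATP level not reduced by more than half and red fluorescence within 50% of control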; further: strong numbers were not always called active
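Assay system: HT1080 RFP-PRO-GFP cells | Dosing: 20 µM single dose, 1% DMSO | Incubation: Cells overnight before dosing, compound overnight, 37 °C, 5% CO2 | Evaluation: GFP/RFP fluorescence ratio | Control set: DMSO-only wells and HT1080 RFP-L50D-GFP cell wells as references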
CSC inhib: cancer stem cell inhibition; cancer stem cell-like cells viability, luminescence; inhibition, % at 7.5 µM; 1.1% of 300,000 active;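 active means mean at 75% or more and at least half the replicates too; inconclusive means mean and replicates disagree; tested in HMLE shEcad cells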;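 further: 0% = median of negative and 100% = median of positive control wells; the first replicate is given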
eIF4H inh: inhibitors of RNA binding by human eIF4H; inhibition, % at 35 µM; 0.94% of 290,000 active; eIF4H fluorescence polarization binding assay;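 active means 50% or more with normal probe brightness, or confirmed in later tests; inconclusive means above 50% with abnormal brightness, or retests that disagree; inactive means below 50% or failed in later tests; about a fifth of its hits are not listed in these tables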;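 further: calls also rest on retests at 20 µM and on dose response follow-up; 0% = protein and probe with vehicle and 100% = probe without protein; strong numbers were not always called active; many hits fall short of the cut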
UUG fidelity: modulators of start codon recognition fidelity in yeast; activity score, % at 18.7 µM; AID 602363; S. cerevisiae UUG-firefly luciferase reporter, luminescence/redox ratio; 0.13% of 350,000 active;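 active means replicate mean at a twofold rise or more, about +100% in these data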;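 further: firefly luciferase made from a UUG start codon reports start codon fidelity; reporter light over untreated wells divided by growth signal over untreated wells; some hits fall short of that in this replicate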
MT1-MMP act inh RFP: further read-out of MT1-MMP act inh, marked with its call; RFP signal change, %; measured here: RFP expression control read;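 0 = vehicle wells; hits needed this value within 50% of zero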
* = called active by the depositor; i = inactive; ? = inconclusive; . = not tested or not shown; & = joins results of further samples; [ ] = another dose, or the depositor's remark. The order is random; overall some 2.9% were active at least once.

SMILES	HIV Env fusion	Rce1 inh	PABP polyA inh	MT1-MMP act inh	MT1-MMP act inh RFP	CSC inhib	eIF4H inh	UUG fidelity
Cc1cc(C(=O)COc2cccc([N+](=O)[O-])c2)c(C)n1C1CC1	-64	.	.	-3	-4	21	.	-11
Cc1nn(-c2ccccc2)c(=S)n1-c1ccccc1	.	i	14	1	8	-7	0	-12
COc1ccc(NC(=O)CN(C)CC(=O)Nc2sc3c(c2C(N)=O)CCC3)cc1	-17	i	.	-2	-5	-5	.	-10
COC(=O)C1C(O)=C(C=Nc2cccc3ccccc23)C(=O)CC1(C)C (configuration not stated)	1	i	5	0	-3	6	-16	.
N=C(c1cccc([N+](=O)[O-])c1)N1CCCCC1	-16	i	-2	-3	-1	2	5	.
CN(CC(=O)Nc1ccc(F)cc1)C(=O)Cn1cnc2ccc(Cl)cc2c1=O	5	.	.	-2	-2	.	.	-15
COc1ccc(/C=C2\C(=O)NC(=S)N2C(=O)c2ccc(C)cc2)cc1	-17	i	-8	-13	0	3	19	.
Cc1cnc(C)c(N2CCC(C(=O)NC(C)c3cccs3)CC2)n1 (configuration not stated)	-24	i	-2	-1	7	.	6	0
C=CC[C@H](CC(=O)N(CCO)Cc1ccccc1)C(=O)N[C@H](COC(=O)[C@@H](CC=C)Cc1ccc(F)cc1)Cc1ccccc1	?	.	.	-24	-34	-1	.	-7
Cc1ccc(Cc2cnc(NC(=O)c3ccco3)s2)cc1	.	i	-2	9	-4	50	-8	-23
FC(F)(F)C12CC(c3ccccc3)=NCCN1CCN2 (configuration not stated)	8	i	28	-5	3	12	28	-17
COCCn1c(=NC(=O)CCS(=O)(=O)c2ccccc2)sc2c(OC)ccc(OC)c21	.	i	-19	-4	4	5	-14	-3
COCCNC(=O)CSCc1c(F)cccc1Cl	.	i	-6	-1	-2	-16	-4	-17
CS(=O)(=O)Nc1ccc(C(=O)NCCSCc2c(F)cccc2Cl)cc1	-9	i	-4	6	0	-2	-2	-11
COc1ccc2[nH]cc(S(=O)(=O)c3ccc(C(C)C)cc3)c(=O)c2c1	1	i	-9	5	1	-7	2	.
O=C(CCl)N=c1sccn1Cc1ccc(Cl)cc1Cl	84*	i	-21	-28	-33	0	7	.
CCC(=O)Nc1ccc(C(=O)CSc2nnc(-c3ccc(NS(C)(=O)=O)cc3)n2C)cc1OC	-1	i	-5	1	4	5	-3	-13
COc1cccc(CNc2cc(CSc3ccc(Cl)cc3)nc(C)n2)c1	.	i	2	2	-7	9	-1	-11
COc1ccc2oc(=O)cc(C)c2c1	.	i	13	-1	1	3	-2	.
COc1ccccc1CNC(=O)CN(C)S(=O)(=O)c1ccc(Br)s1	3	.	2	1	0	-6	-2	-2
COc1ccccc1-n1c(SCC(=O)N2CCOCC2)nc(O)cc1=O	-1	i	-3	-6	3	-2	-8	-3
CCC1Oc2ccc(C)cc2N(CC(=O)NCC2COc3ccccc3O2)C1=O (configuration not stated)	-2	i	0	-1	2	1	0	-3
N#Cc1nc(N2CCOCC2)nc(N2CCOCC2)n1	.	i	-1	2	4	4	0	-7
O=c1oc2ccc(Cl)cc2cc1-c1ccccc1	2	i	0	0	-1	6	-2	.
O=C(O)C1C2C=CC3(CN(c4cccc(C(F)(F)F)c4)C(=O)C13)O2 (configuration not stated)	-108	i	8	2	2	-7	-1	-12

Single records, from the list above. Order of values: HIV Env fusion	Rce1 inh	PABP polyA inh	MT1-MMP act inh	MT1-MMP act inh RFP	CSC inhib	eIF4H inh	UUG fidelity
COCCNC(=O)CSCc1c(F)cccc1Cl is listed as .	i	-6	-1	-2	-16	-4	-17
Cc1nn(-c2ccccc2)c(=S)n1-c1ccccc1 is listed as .	i	14	1	8	-7	0	-12
COc1ccc2[nH]cc(S(=O)(=O)c3ccc(C(C)C)cc3)c(=O)c2c1 is listed as 1	i	-9	5	1	-7	2	.
N#Cc1nc(N2CCOCC2)nc(N2CCOCC2)n1 is listed as .	i	-1	2	4	4	0	-7

The listing picks up with the 3 entries that preceded the break.
SMILES	HIV Env fusion	Rce1 inh	PABP polyA inh	MT1-MMP act inh	MT1-MMP act inh RFP	CSC inhib	eIF4H inh	UUG fidelity
N#Cc1nc(N2CCOCC2)nc(N2CCOCC2)n1	.	i	-1	2	4	4	0	-7
O=c1oc2ccc(Cl)cc2cc1-c1ccccc1	2	i	0	0	-1	6	-2	.
O=C(O)C1C2C=CC3(CN(c4cccc(C(F)(F)F)c4)C(=O)C13)O2 (configuration not stated)	-108	i	8	2	2	-7	-1	-12
C=CCN1C(=O)/C(=C/c2ccccc2)S/C1=N/c1nccs1	-31	i	-1	5	3	20	-8	2
O=C(c1ccc(C(=O)N2CCCCCC2)cc1)N1CCCCCC1	.	i	9	5	4	-10	12	11
NNC(=O)CCc1c[nH]c2ccccc12	.	i	-1	0	0	-12	-4	-14
CCN1C(=O)CC(N2CCN(c3ccc(C(=O)c4ccncc4)cc3)CC2)C1=O (configuration not stated)	-6	i	6	-2	-8	-10	2	1
COc1ccc(CN(C)CCc2ccccn2)c(OC)c1OC	-28	i	8	2	2	-18	17	-17
Cc1nc2ccc(C(=O)O)cc2[nH]1	8	i	1	2	3	-10	35	-20
O=C(Nc1nnc(-c2ccccc2)o1)C1CCCCC1	-12	i	15	3	7	3	0	-13
CC(C)NC(=O)c1ccc(OC2CSC2)cc1	-4	i	-5	9	0	15	2	-9
CCCNC(=O)C1(C)CCCN(Cc2csc3ccccc23)C1 (configuration not stated)	15	.	.	-4	-3	.	.	-12
Cc1ccc(C(=O)NCCc2c[nH]c3ccccc23)s1	-77	i	-1	-1	-4	5	-7	-13
Cc1ccc(S(=O)(=O)N(C)CC(=O)N2CCN(c3ccccn3)CC2)cc1	-28	i	-14	2	1	-7	-10	-8
Cc1cc(Br)cc(C)c1NC(=S)NC(=O)CC(C)C	-60	i	3	1	1	-5	-15	39
CC(C)COc1ccc(C(=O)OCCN2CCCCC2)cc1	15	i	-4	3	3	30	-7	-3
C=CCOc1ccc(-c2nc3c(c(=O)[nH]c(=O)n3CCCC)n2C)cc1OC	12	i	-5	1	5	-11	0	-16
COc1ccccc1CN1CCC(n2nccc2NC(=O)CCCc2ccccc2)CC1	-319	i	8	4	3	4	0	18
Cc1ccc(C(=O)N/C(=C/c2ccco2)C(=O)NC2CCS(=O)(=O)C2)cc1 (configuration not stated)	10	i	22	-2	3	-7	0	.
Cc1ccccc1NC(=O)CCC(=O)N/N=C/c1c[nH]c2ccccc12	2	i	-11	0	1	-16	-2	.
CC(Oc1ccc(Cl)cc1Cl)C(=O)NN=C1CCN(C)CC1 (configuration not stated)	-18	i	-2	0	3	-12	-2	-9
CCCCCCC(=O)Nc1ccc(C(=O)N2CCCC2)cc1	-14	i	-11	2	0	-4	-7	-14
COc1cccc(/C=C(/C(=O)OCC(=O)NC2CCCCCCC2)c2ccccc2)c1	18	.	3	-2	-5	31	-8	.
Cc1cccc(NC(=O)CNC(=O)Cc2ccc3c(c2)OCCO3)c1C	-11	.	.	-3	-1	.	.	-18
CN(C(=O)C1CCN(S(=O)(=O)c2cccc3nonc23)CC1)C1CCCCC1	-1	i	5	-8	-8	5	11	-12
O=C(COC(=O)/C=C/c1ccccc1[N+](=O)[O-])NC1CCS(=O)(=O)C1 (configuration not stated)	-1	i	3	2	0	2	0	.
CCn1c(SC)nc2cc(S(=O)(=O)N3CCCCC3)ccc21	-42	.	.	-2	2	-11	.	-11
CC(=O)Nc1ccccc1N(C)S(=O)(=O)c1ccc(C)cc1	-300	i	-10	1	1	21	4	-4
More records follow:
SMILES	HIV Env fusion	Rce1 inh	PABP polyA inh	MT1-MMP act inh	MT1-MMP act inh RFP	CSC inhib	eIF4H inh	UUG fidelity
COC(=O)C1CN(C(=O)COc2ccc(Cl)cc2Cl)c2ccccc2O1 (configuration not stated)	2	i	4	-3	2	5	7	-3
Cc1ccc(Cl)cc1NC(=O)CCN1C(=O)C2C3CCC(C3)C2C1=O (configuration not stated)	7	i	6	0	-1	9	-1	-6
COc1ccc(OC)c(/C=N/NC(=O)C(=O)N2CCCC2)c1	-7	i	-3	.	.	-1	-4	.
COc1cccc(NC(=O)C(C)SCc2ccccc2)c1 (configuration not stated)	16	i	1	0	-5	-9	8	.
CC(C)NC(=O)N(C)C[C@H]1Oc2c(NC(=O)Nc3ccc(C(F)(F)F)cc3)cccc2C(=O)N([C@H](C)CO)C[C@@H]1C	3[16.7 µM]	.	.	4	-3	6	.	7&18
Cc1c(OCC(=O)N2CCC(C(=O)O)CC2)ccc2c3c(c(=O)oc12)CCCC3	.	.	-2	0	7	-4	-1	0
CC(CCc1ccccc1)NC(=O)[C@@H]1Cc2ccccc2CN1 (some centres not stated)	6	i	-8	-1	3	-5	1	-7
Cc1cc(OC(C)C(=O)NNC(=O)Nc2ccc(F)cc2F)cc(C)c1Cl (configuration not stated)	-4	i	4	0	-3	-9	2	2
CC1(c2ccc([N+](=O)[O-])cc2)NC(=O)N(CC(=O)Nc2cccnc2Cl)C1=O (configuration not stated)	16	i	.	2	2	.	.	-17
Cc1ccc(-c2nn(CCC(=O)Nc3cccnc3)c(=O)c3ccccc23)cc1	18	i	4	1	-4	8	-6	-4
N#Cc1cncc(C#Cc2ccccc2)c1	7	i	-4	-4	-3	-14	-12	.
CCCOc1ccc(C(=O)N2CCCc3ccccc32)cc1	1	i	-6	0	-5	-6	-10	3
CCOC(=O)C/C(C)=N/NC(=O)Nc1ccccc1	5	i	17	-4	-1	6	-1	-2
CCSc1ncnc2sc(C)c(C)c12	-256	i	-6	3	3	2	-9	.
CC(C)C12CN3CCN(CC(C3)/C1=N\NC(=O)Nc1ccccc1)C2	.	i	-1	-3	6	16	-3	.
CCNS(=O)(=O)c1ccc(CCC(=O)Nc2ccccc2C(=O)OC)cc1	9	i	3	1	5	-2	-2	.
CC(=O)c1ccc(NC(=O)C(NC(=O)c2ccccc2)=C(C)C)cc1	3	i	1	0	2	-9	-6	-13
O=C(c1nc2ccccn2c1CNCCOc1cccnc1)N1CCOCC1	-2	i	3	-2	9	-7	3	.
CCOc1ccccc1-n1c(SCC(=O)N2CCCc3ccccc32)nnc1-c1cccnc1	28	i	11	-10	-6	-19	0	.
Cc1ccc(/C=C2\SC(=O)N(CCNC(=O)C3CSC4(C)CCC(=O)N34)C2=O)cc1 (configuration not stated)	-5	i	.	-2	-2	-13	.	-1
CCOC(=O)Nc1ccc2c(c1)nc(CN1CCN(C(C)=O)CC1)n2C	-21	i	-8	6	2	24	-14	-21
CCN(CC)c1nc(-c2nn[nH]n2)nc(N(CC)CC)n1	-28	i	-5	-2	5	-34	6	-27
Cc1ccc2[nH]c(C)c(CC(=O)NCc3ccccc3)c2c1	-3	i	-5	3	-1	-4	0	-16
O=C(NCc1cccnc1)c1ccc(NS(=O)(=O)c2ccccc2)cc1	-17	i	-11	-2	2	-1	-8	3
O=C(Nc1ccnc(-c2ccncc2)n1)C1CC1	-33	i	0	4	3	-10	-4	.
CC(C)CN1CCN(Cc2ccc3ncccc3c2)CC1CCO (configuration not stated)	4	i	-9	-1	5	-8	8	1
C=CCc1cc(Cl)ccc1OCCCNCCO	4	i	-1	0	7	.	9	.
CCN(C(=O)CSc1nc2ccccc2c(=O)n1C(C)COC)C1CCS(=O)(=O)C1 (configuration not stated)	7	i	6	0	4	-2	3	-8
O=C(NC1(C(F)(F)F)NC(=O)N(c2ccc(F)cc2)C1=O)c1cccs1 (configuration not stated)	.	i	10	-3	-3	-9	-1	.
O=C(COC(=O)CC(c1ccccc1)c1ccccc1)NCc1ccccc1	-50	.	-18	3	2	-5	8	.

Source: PubChem (several laboratories)
